Source: PubChem (several laboratories)
ALR inh = human ALR oxidase inhibition via reduced H2O2; AID 485317; 290,000 tested, 3.8% active; P55789; purified ALR, DTT oxidation, H2O2 HRP-luminol luminescence; inhibition, % (no concentration beside the values);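 active means mean and each replicate at 75% or more; inconclusive means only one of the two met; inactive means neither met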;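 further: stock transfer was 7.5 nL into about 7.5 µL; 0% = neutral wells and 100% = wells with inactivated enzyme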
E coli growth = blocks Escherichia coli growth | OD600, 23 h; active compounds read low | OD600 absorbance (test concentration not listed) | 330,000 tested, 0.21% active;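 active means OD600 absorbance below the run mean of sample wells minus 3.6 SD, in any replicate, cut at about 0.56 in these data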;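 further: stock transfer was 300 nL into about 60 µL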
B2AR ag = human beta-2 adrenergic receptor agonism by FAP | P07550 | Am2.2-beta2AR cells, FAP receptor internalization, flow cytometry; reference of the scale not given here | response, % (no concentration beside the values) | 340,000 tested, 0.43% active | AID 504454;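 active means response above a set limit, near 3 SD of response in nonfluorescent compounds, cut at about 42% in these data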;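 further: stock transfer was 100 nL into about 11 µL; a reference agonist was the positive control; negative values mostly stem from fluorescent compounds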
Target sequence (P07550 whole entry, looked up): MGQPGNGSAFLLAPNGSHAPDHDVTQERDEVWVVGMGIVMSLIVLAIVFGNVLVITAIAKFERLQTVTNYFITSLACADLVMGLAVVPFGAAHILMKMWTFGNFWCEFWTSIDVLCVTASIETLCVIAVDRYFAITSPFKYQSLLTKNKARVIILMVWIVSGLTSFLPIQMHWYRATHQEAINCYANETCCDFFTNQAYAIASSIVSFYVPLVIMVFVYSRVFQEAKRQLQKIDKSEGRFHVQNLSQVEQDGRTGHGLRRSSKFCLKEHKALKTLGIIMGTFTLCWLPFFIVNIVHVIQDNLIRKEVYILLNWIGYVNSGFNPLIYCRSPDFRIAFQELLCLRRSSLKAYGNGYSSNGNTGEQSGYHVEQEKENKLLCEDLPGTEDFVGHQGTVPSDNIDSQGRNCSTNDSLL
HNF4A DNA FP = change in binding of human HNF4 alpha to DNA; AID 1224865; P41235; HNF4a-FITC DNA binding, fluorescence polarization, 1 h; activity change, % at 10 µM; 360,000 tested, 0.3% active; in the data active means activity change above about 30%, passing the limit was not always enough;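 further: controls were the assay level and a saturating level of protein; the project sought stronger binding though the title names inhibitors; some compounds called inactive have numbers as strong as hits; positive values seem to mean higher polarization but the record does not say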
Target sequence (P41235 whole entry, looked up): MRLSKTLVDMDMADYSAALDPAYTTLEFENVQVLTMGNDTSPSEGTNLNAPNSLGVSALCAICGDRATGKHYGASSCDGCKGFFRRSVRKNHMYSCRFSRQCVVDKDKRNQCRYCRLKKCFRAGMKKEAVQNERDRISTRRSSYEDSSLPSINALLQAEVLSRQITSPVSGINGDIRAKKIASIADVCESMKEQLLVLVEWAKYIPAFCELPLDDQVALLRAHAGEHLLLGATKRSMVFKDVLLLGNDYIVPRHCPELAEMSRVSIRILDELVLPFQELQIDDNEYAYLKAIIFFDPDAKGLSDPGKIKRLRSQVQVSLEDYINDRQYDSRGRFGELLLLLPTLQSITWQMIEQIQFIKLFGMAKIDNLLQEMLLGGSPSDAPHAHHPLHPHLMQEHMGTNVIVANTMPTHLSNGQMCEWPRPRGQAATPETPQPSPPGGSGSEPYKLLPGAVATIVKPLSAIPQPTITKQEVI
LANA-H2A inh = blocks KSHV LANA binding to histone H2A/H2B; 320,000 tested, 0.6% active; cell-free LANA-H2A/H2B peptide, fluorescence polarization; Q9QR71; AID 2629; inhibition, % (test concentration not listed); in the data active means inhibition mostly above about 10%, no sharp cut-off; inactive means mostly below about 6.7%;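 further: stock transfer was 7.5 nL into about 10 µL; 0% = median of vehicle wells and 100% = median of positive control wells; one replicate is shown; the record names a cut of 25% in any replicate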
FGF22 binding = shifts melting point of recombinant human FGF22; AID 651658; Q9HCT0; recombinant FGF22 thermal shift, SYPRO orange fluorescence; percent of sucrose octasulfate shift, DMSO zero; calls only at 9.99 µM; 340,000 tested, 1.5% active;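 active means melting point raised past a set limit in the mean and every replicate; inconclusive means no clear call; three in four hits are not shown here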
UCH37 DUB inh = inhibitors of human deubiquitinating enzyme UCH37. Q9Y5K5. purified proteasome/UCH37, Ub-AMC cleavage fluorescence. inhibition, % (no concentration beside the values). 330,000 tested, 0.33% active. AID 588478;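 active means mean of two replicates above 20%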;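 further: 0% = compound-free wells with enzyme and 100% = wells lacking proteasome; stock transfer was 100 nL into about 20 µL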
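assay system = human UCH37 enzyme supplied as purified proteasome complex | amount = proteasome at 0.15 nM in the dispensed enzyme solution | schedule = 30 min compound-proteasome preincubation then 25 min substrate reaction, room temperature | measured by = fluorescence, ex 355 nm, em 460 nm | benchmarks = no-proteasome wells (full inhibition) and compound-free wells (no inhibition)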
The depositor's hits bear a star; i = inactive; u = inconclusive; x = not tested or not shown; + = active, no number.

canonical_smiles	ALR inh	E coli growth	B2AR ag	HNF4A DNA FP	LANA-H2A inh	FGF22 binding	UCH37 DUB inh
Cc1ccccc1NC(=O)C1COc2ccccc2O1 (centres undefined)	x	0.651	-0.2	3.2	-3.8	i	4.1
COc1ccc(CCNC(=O)c2c(O)c3ccccc3n(C)c2=O)cc1	-7.3	0.698	-1.6	5.4	4.1	i	-4.7
CCOC(=O)C1(Cc2ccccc2C)CCCN(C(=O)c2ccc3nccnc3c2)C1 (centres undefined)	-0.1	0.677	10.1	0.2	-0.4	i	1.0
Cc1ccc(NC(=O)N(CCCN2CCOCC2)Cc2cc3cc4c(cc3[nH]c2=O)OCO4)cc1	-4.8	0.713	0.3	-6.1	2.8	x	-58.1
Cn1c(CN2CCCC2)nc2cc(NC(=O)c3ccco3)ccc21	-20.0	0.671	23.8	-1.5	0.3	x	0.1
O=C(c1cc(-c2ccccc2)nc2ccccc12)N1CCN(c2ccccn2)CC1	-9.9	0.658	-0.6	0.8	1.3	x	1.0
CCCn1c(SCC(=O)NCc2ccccc2)n[nH]c1=O	x	0.748	-2.9	2.9	-3.8	i	1.5
O=C1CCCN1c1ccc(S(=O)(=O)NCc2ccco2)cc1	-5.3	0.695	-8.8	-1.0	-1.4	x	5.5
O=C(COc1ccc(Cl)cc1Br)Nc1ccccc1N1CCCC1	-3.6	0.649	3.5	1.7	-2.2	i	5.9
O=C(NC1CCCc2ccccc21)c1ccccc1Br (centres undefined)	-5.8	0.658	6.8	-4.9	1.1	i	1.0
O=C(O)CNC(=O)/C(=C\c1ccc2c(c1)OCO2)NC(=O)c1ccc(Br)cc1	5.5	0.649	-4.4	-2.2	3.2	i	7.3
Cc1ccc(-c2csc(N(C)C(=O)c3c(C)nn(-c4ccccc4)c3Cl)n2)cc1	0.6	0.693	-4.1	3.2	0.9	i	5.6
c1ccc(CCn2c(C3CC3)nc3ccccc32)cc1	-0.1	0.708	-0.1	1.6	1.1	i	1.4
NC(=O)c1nn(Cc2ccccc2)c(=O)c2ccccc12	0.4	0.646	1.1	3.5	2.5	i	3.8
COc1ccccc1-c1ccc(SCc2ccc([N+](=O)[O-])cc2)nn1	29.1	0.755	1.4	-2.9	-1.3	i	-1.4
Cc1ccc(NC(=O)CCN2C(=O)NC(C)(C)C2=O)cc1F	x	0.69	5.4	-1.9	x	i	4.4
Cc1cccn2c(=O)c3cc(C(=O)N4CCN(Cc5ccccc5)CC4)sc3nc12	-6.0	0.703	6.5	0.3	5.2	i	-255.7
CCc1nnc(NS(=O)(=O)c2ccc(NC(=O)c3cc(Cl)ccc3[N+](=O)[O-])cc2)s1	34.3	0.646	7.1	-0.8	-3.1	i	2.0
CN(C)S(=O)(=O)c1cccc(-c2cn3cccnc3n2)c1	98.6*	0.69	-13.5	1.6	5.2	i	i
Cc1ccc(C(=O)OCC(=O)Nc2cc(C(C)(C)C)nn2-c2ccccc2)c(O)c1	24.6	0.674	-9.9	-0.3	4.5	i	1.5
CCOC(=O)C(NC(=O)c1ccccc1Cl)(Nc1ccc(C(F)(F)F)cc1)C(F)(F)F (centres undefined)	1.5	0.691	2.3	1.3	2.1	x	1.5
COC(=O)c1ccccc1NC(=O)CCCn1nc([N+](=O)[O-])cc1C	-4.4	0.664	-1.9	1.4	4.2	i	-0.2
COc1ccc(NC(=O)c2cc(C(=O)Nc3ccc(OC)cc3OC)cc([N+](=O)[O-])c2)c(OC)c1	-57.5	0.728	9.0	-0.7	-1.6	i	6.8
COc1ccccc1CN(Cc1cc2c(C)ccc(C)c2[nH]c1=O)Cc1nnnn1Cc1ccco1	-6.7	0.689	26.1	1.4	1.1	x	-0.1
CC(=O)/C(=N/Nc1ccc(Br)cc1)Sc1cccc2cccnc12	0.6	x	0.4	4.7	-8.2	i	x
Cc1cccc(N2CC(C(=O)Nc3ccc(S(=O)(=O)N4CCOCC4)cc3)CC2=O)c1C (centres undefined)	-2.1	0.644	2.9	2.0	-3.1	i	1.4
COc1cccc(NC(=O)CSc2nn3c(=O)c(C)nnc3s2)c1	98.9*	0.718	4.4	-2.0	-4.6	i	10.2
CC(C)(C)OC(=O)N1CCC(C(=O)Nc2cccc(C(=O)NCCCc3ccccc3)c2)CC1	x	x	2.2	0.5	x	i	x
CCOc1ccc(NC(=O)COC(=O)c2ccc3ncsc3c2)cc1OCC	x	0.703	-1.4	0.3	x	x	1.8
O=C1C(c2ccccc2)SC(=Nc2ccccc2)N1S(=O)(=O)c1ccccc1 (centres undefined)	50.7	0.726	-2.4	-1.6	3.5	x	4.4
CC(=O)N1Cc2[nH]c3ccccc3c2CC1C(=O)O (centres undefined)	x	0.649	0.5	-1.9	x	i	-0.2
COc1ccc2nc(N/C(N)=N/C(=S)Nc3ccccc3)nc(C)c2c1	-3.8	0.663	2.9	2.7	-0.6	+	-3.5
O=C(COc1ncnc2ccc(Br)cc12)N1CCOCC1	-2.8	0.73	-9.8	-1.2	-2.0	x	-0.4
CCOc1ccc(NC(=O)C2CCN(S(=O)(=O)c3ccc4c(c3)NC(=O)C(C)S4)CC2)cc1 (centres undefined)	2.1	0.67	-5.2	-2.8	-0.1	i	0.6
NCCCC[C@H](NC(=O)C1CCNCC1)c1nnc([C@@H](N)Cc2ccc(O)cc2)o1	4.2	x	-1.2	-5.3	-2.9	i	-0.1
O=C(NCc1ccco1)c1cc(S(=O)(=O)N2CCCCC2)ccc1Cl	0.3	x	8.9	1.8	-2.2	i	x
COc1ccc(S(=O)(=O)Nc2cccc3c2O[C@H](CN(C)Cc2ccccc2)[C@@H](C)CN([C@H](C)CO)C3=O)cc1	-1.7	x	-0.7	3.2	-2.4	i	5.9
Cc1no[n+]([O-])c1COc1ccccc1/C=C1\NC(=S)NC1=O	2.3	0.717	-6.9	4.9	-1.7	x	x
CCC(C)N(C(=O)CN1C(=O)NC2(CCc3ccccc32)C1=O)C1CCS(=O)(=O)C1 (centres undefined)	-26.6	0.705	-8.2	-0.8	3.3	i	2.4
Cc1nc2ccccc2c(=O)n1/N=C/c1ccc(OC(F)F)cc1	-2.7	x	-1.8	-1.8	-3.0	i	x
CC(C)CNc1nc(Oc2ccc(=O)n(C)n2)nc(N2CCOCC2)n1	-25.5	0.72	-6.5	0.9	-2.3	x	5.3
COc1ccc(C(CC(=O)Nc2ncccc2C)N2Cc3ccccc3C2=O)cc1OC (centres undefined)	20.7	0.621	-8.0	3.9	0.2	i	0.6
CN(Cc1ccco1)C(=O)CN1C(=O)NC(c2ccccc2)(c2ccccc2)C1=O	x	0.69	4.0	-3.0	x	i	2.2
COc1ccc(CCNC(=O)C2CC2)cc1OC	-6.2	0.657	5.0	-2.7	-7.5	x	-0.5
O=C(CSC1=Nc2ccccc2C2CC=NN12)Nc1ccc(F)cc1Cl (centres undefined)	74.0	0.7	14.1	-3.2	-10.4	i	6.6
Cc1cccc(CS(=O)(=O)Cc2ccc(C(=O)O)o2)c1	-6.6	0.758	3.1	-0.3	1.1	x	0.9
O=C(CN(Cc1ccccc1)C(=O)CCl)c1cccc(Br)c1	3.3	0.691	5.2	2.8	-3.4	i	1.5
COc1ccc(C(=O)Nn2c(SCC(=O)NC3CCCCC3)nc3ccccc3c2=O)cc1	-51.4	0.724	1.7	0.6	-1.2	x	-0.7
CCOC(=O)c1c(CN(CC)CC)oc2cc(Br)c(O)cc12	6.5	0.754	-0.1	-0.5	-4.9	i	6.9
CC(C)CN1CCC(=O)N(CCO)CC1	2.2	0.801	1.4	-1.8	-2.5	x	-0.9
Cc1cnc(NC(=O)CC2OC(=O)c3ccccc32)s1 (centres undefined)	x	0.683	-2.4	-0.7	x	i	0.3
CC(C)N1C(=O)C(Cc2nc3ccccc3c(=O)n2-c2ccccc2)c2ccccc21 (centres undefined)	-7.8	0.72	-3.6	-0.2	-5.1	i	1.1
CN1CCN(CC(O)(c2ccc(Cl)cc2)c2ccc(Cl)cc2)CC1	-0.2	0.669	11.9	1.8	-2.9	i	2.2
CC(C)[C@@H](COc1ccccc1)N1CCN(Cc2ccccc2)CCC1=O	2.3	x	-7.8	-0.7	-3.3	i	0.7
Cc1ccc(-c2nnn(CC(=O)N(CCCO)C(C(=O)NC3CCCC3)c3ccc(F)cc3)n2)o1 (centres undefined)	-8.6	0.686	8.4	1.9	-0.4	i	0.9
O=C(CCn1[nH]c(=O)c2ccccc2c1=O)N1CCOCC1	-6.2	0.71	4.4	-1.1	-1.6	x	0.6
Cc1cccnc1NS(=O)(=O)c1cccc([N+](=O)[O-])c1	-3.5	x	-1.8	2.1	-8.9	i	1.5
COc1ccc(N2CCC(CNC(=S)Nc3c(C)cccc3C)C2)cc1 (centres undefined)	u	0.718	8.6	1.1	-0.9	i	4.4
CN1CCC(OC(=O)COc2ccccc2)CC1	-3.5	0.687	2.5	2.8	1.3	x	-1.6
O=C(CN1CCNCC1)Nc1ccc(Oc2ccccc2)cc1	-7.0	0.647	-1.9	-1.6	-6.2	x	1.5

Going on with the list.
canonical_smiles	ALR inh	E coli growth	B2AR ag	HNF4A DNA FP	LANA-H2A inh	FGF22 binding	UCH37 DUB inh
CC(C)(CNC(=O)/C=C/c1ccc(F)cc1)CNC(=O)/C=C/c1ccc(F)cc1	-2.4	0.658	15.9	0.6	0.9	x	4.7
CC(C)(C)C1(c2ccccc2)NC(=O)N(CC(=O)N2CCOCC2)C1=O (centres undefined)	x	0.741	-1.0	1.3	1.3	x	-1.3
CCOC(=O)c1c(C)[nH]c(C)c1C(=O)COC(=O)c1cc2ccccc2cc1OC	13.5	0.664	-4.7	0.7	2.9	x	-17.8
COc1ccc(S(=O)(=O)N2CCCCC2)cc1NC(=O)Cc1cccc(C(F)(F)F)c1	x	0.625	-1.4	-30.1	x	i	2.1
COc1nc2c(C)cccc2cc1-c1noc(-c2ccco2)n1	2.4	0.807	-2.5	12.2	-1.9	x	-3.6
CC1(C)Cc2cccc(OCC(=O)OCC(=O)c3ccccc3)c2O1	-1.4	0.685	11.7	1.6	-3.6	i	1.9
CC(=O)NC(Cc1ccccc1C)C(=O)NC1CCN(C(=O)NCc2ccccc2)CC1 (centres undefined)	x	0.713	-21.3	-0.2	x	i	5.5
CC(C)C(=O)Nc1cccc(-c2csc(-c3ccccc3)n2)c1	37.7	0.701	-24.8	2.9	-7.2	i	1.1
COc1ccc2c(c1)CC/C(=C\C=C\c1ccccc1OC)C2=O	x	0.717	9.1	7.0	2.5	x	1.3
COc1ccc(C2/C=C\CN(C(=O)Nc3ccccc3)CC(=O)N2Cc2ccc(F)cc2)cc1 (centres undefined)	x	x	1.0	4.9	-3.1	i	-1.2

Only part of the results is shown (hit frequency here may not be typical).
